CapD inh = Bacillus anthracis CapD inhibitors, primary screen, biochemical, fluorescence intensity; z-score (concentration not given with the values); 140,000 tested, 0.23% active; purified CapD enzyme, fluorescence intensity read-out; hits give low values; some hits fall short of the stated cut; CapD gamma-glutamyltranspeptidase (Bacillus anthracis Ames Ancestor);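 active = z-score under -4 in either of two replicates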;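 also: stock transfer was 100 nL into about 40 µL; score is relative to mean and spread of the plate; one replicate is shown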
AID504770 = growth inhibition of E. coli YBA685, primary screen, V. cholerae RctB inhibitors; E. coli YBA685 rctB-dependent plasmid, OD600 growth, 3 h; hits give low values; z-score (no concentration beside the values); AID 504770, 2011; 130,000 tested, 0.27% active;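 active = z-score under -2 on both plates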;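 also: wells of about 30 µL received 100 nL stock; score is relative to mean and SD of the test wells; the first replicate is given; strong numbers were not always called active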
* hit, by the source's call; . = no result given.

Results follow in this order: AID504770 | CapD inh
COc1cc2nc(-c3ccc4c(c3)C(=O)N(CC(C)C)C4=O)oc(=O)c2cc1OC
 : 1.1 | -0.79
CCN1C(=O)N(c2cc(C)ccc2C)C2CS(=O)(=O)CC21 (stereo not given)
 : -0.65 | -0.69
Cc1cc(C)n(-c2ccc(C(=O)NCCc3ccc(S(N)(=O)=O)cc3)cc2)n1
 : -0.15 | .
CC1CC(C)CN(S(=O)(=O)c2cccc(C(=O)Nc3ncn[nH]3)c2)C1 (stereo not given)
 : -0.35 | .
O=C(O)c1cccnc1C(=O)N1CCc2c([nH]c3ccccc23)C1C(F)(F)F (stereo not given)
 : 1.8 | 0.14
O=C(Cc1ccc(Cl)cc1)NCCSc1ccccc1
 : -0.95 | -0.26
COc1ccc2cc(C(=O)N3CCOCC3)sc(=O)c2c1OC
 : -0.55 | -0.89
O=C(c1cnn2c1NC(c1ccc3c(c1)OCO3)CC2C(F)(F)F)N(Cc1ccccc1)Cc1ccccc1 (stereo not given)
 : . | -0.64
C=CCC1C(=O)NC(=S)NC1=O
 : . | -0.82
COC(CNC(=O)c1cc(C)nn1-c1ccccc1)OC
 : 0.35 | 4.6
c1ccc(Cc2nc3ccccc3o2)cc1
 : -0.95 | 0
CC(C(=O)NCCCn1ccnc1)(c1ccccc1)c1ccccc1
 : -0.7 | -0.065
O=c1c2sc(=S)n(Cc3ccco3)c2nc(SCc2cc(=O)n3cc(Cl)ccc3n2)n1-c1ccc(F)cc1
 : . | 2.6
COC(=O)C1CN(C(=O)COc2ccccc2OC)c2ccccc2O1 (stereo not given)
 : 0.05 | -0.27
CC1NC(=O)N(C)C2NC(=O)N(C)C(c3ccccc3)C12 (stereo not given)
 : . | -0.24
O=C(NCCN1CCN(c2nccc(C(F)(F)F)n2)CC1)c1ccccc1
 : -0.3 | 0.59
CCOC(=O)C1=C(CC)OC(N)=C(C#N)C1c1ccccc1 (stereo not given)
 : -0.5 | 0.66
Cc1ccc(CNC(=O)CCCn2c(=O)c3ccccc3n(CC(=O)c3ccccc3)c2=O)cc1
 : -0.9 | 0.57
C[C@]1(C(=O)NN)C[C@]1(C)C(=O)NN
 : . | 0.045
CCN(CC)C(=O)/C(C#N)=C/c1cc(Br)cs1
 : 1.6 | .
Cc1nc(-c2ccccc2)sc1C(=O)/C=C/N(C)C
 : 0.05 | -3.2
Cc1ccc(-c2csc(Nc3ccc4c(c3)OCO4)n2)cc1C
 : 0.25 | -0.065
CCOC(=O)c1oc2ccccc2c1COC(=O)c1c(CC)noc1C
 : 0 | .
COC(=O)c1ccc2c(=O)n(CCc3ccc(S(N)(=O)=O)cc3)c(SCC(=O)NC3CCCCC3)nc2c1
 : . | 1
Cc1ccc(N2C(=O)C(N3C(=O)c4cccc([N+](=O)[O-])c4C3=O)C2c2cccs2)cc1Cl (stereo not given)
 : . | -0.06
N#Cc1ccc(N=C/C(Br)=C/c2ccccc2)cc1
 : -0.85 | 0.58
CN(C(=O)c1cn(C)c(=O)cc1C(F)(F)F)c1ccc(Cl)c(Cl)c1
 : -0.35 | 3.4
Cc1ccc(C2=Nc3ccccc3NC(c3ccc(Cl)cc3)C2)cc1 (stereo not given)
 : . | 5.8
Cc1nnsc1-c1nc(C(=O)O)cs1
 : 1.9 | 6.2
Cc1cc(C)n(CNc2nccs2)n1
 : -0.25 | 0.32

Next part, starting with the last three of the part before.
Results follow in this order: AID504770 | CapD inh
Cc1ccc(C2=Nc3ccccc3NC(c3ccc(Cl)cc3)C2)cc1 (stereo not given)
 : . | 5.8
Cc1nnsc1-c1nc(C(=O)O)cs1
 : 1.9 | 6.2
Cc1cc(C)n(CNc2nccs2)n1
 : -0.25 | 0.32
O=C(c1c(F)cccc1F)N(Cc1ccc(Cl)cc1)Cc1ccc2cc[nH]c2c1
 : . | -0.28
COC(=O)c1cc(NC(=O)c2ccccc2)ccc1N1CCOCC1
 : -0.35 | 0.99
CC(C)(C)OC(=O)N/N=C1\CCCCc2ccccc21
 : 0.5 | .
Cc1[nH]c2ccc(C(C)C)cc2c1CC(=O)O
 : 0.35 | 0.3
O=C(N=C1SCC(=O)N1c1ccccc1)c1ccccc1
 : 1.4 | -0.58
O=c1/c(=C\c2cn(Cc3ccc(Cl)cc3Cl)nc2-c2ccccc2)sc2nc3ccccc3n12
 : . | 0.73
CCOc1ccc(N2C(=O)CC(Sc3nc4ccccc4s3)C2=O)cc1 (stereo not given)
 : . | -0.2
C#C[C@]1(OC(C)=O)CC[C@H]2[C@@H]3CCC4=C[C@@H](OC(C)=O)CC[C@@H]4[C@H]3CC[C@@]21C
 : . | 0.56
CCc1ccc(NC(=O)c2ccc(F)c(S(=O)(=O)N3CCc4ccccc43)c2)cc1
 : . | -0.17
CCCCS(=O)c1sc2nc(C)cc(C)c2c1N (stereo not given)
 : 0.05 | 1.4
CN(C)C1(CNC(=O)c2ccc3c(c2)SC2=NS(=O)(=O)CCN23)CCCCC1
 : 0.6 | .
CSc1cccc(NS(=O)(=O)c2ccccc2)c1
 : -0.3 | .
Cc1nc2c3ccccc3n3c(CCCC(=O)NCc4ccccn4)nnc3n2n1
 : 1.1 | 0.96
CCOC(=O)/C(C#N)=C1\Nc2ccccc2C1=O
 : 1.4 | -0.12
CC(C)CCNC(=O)c1cc(S(=O)(=O)N2CCOCC2)ccc1Sc1ccc(Br)cc1
 : . | -0.55
COc1ccc2c(C)cc(SCc3nc4ccccc4c(=O)n3CC#N)nc2c1
 : -0.35 | .
Cn1c(SCc2ccc(Cl)cc2)nc(-c2ccccc2)c1-c1ccccc1
 : . | 0.18
CCc1cccc(C)c1NC(C)=O
 : -0.65 | 0.075
CCN(c1cccc(C)c1)S(=O)(=O)c1ccc2[nH]cc(C(=O)N3CCC4(CC3)OCCO4)c(=O)c2c1
 : . | 1.4
COc1ccc(COc2ccsc2C(=O)Nc2ccc(Cl)cc2)cc1
 : . | 0.25
O=C(OCc1ccc([N+](=O)[O-])cc1)C1CCCN1C(=O)OCc1cccc(SC(F)(F)F)c1 (stereo not given)
 : . | -0.77
CN(C)C(=O)COC(=O)c1cccc(CN2C(=O)c3ccccc3C2=O)c1
 : -0.85 | .
Cc1ccc(CSc2nc3ccsc3c(=O)n2Cc2ccccn2)cc1
 : -0.9 | -0.68
CC(NC(=S)NCCc1ccc(S(N)(=O)=O)cc1)C12CC3CC(CC(C3)C1)C2 (stereo not given)
 : -0.35 | -0.6
O=C(O)CSc1ccc2c(c1)CCC2
 : 2.3 | .
CCc1nnc2c3ccccc3nc(-c3ccncc3)n12
 : 0.35 | 0.49
CC(O)c1nc2ccccc2n1C (stereo not given)
 : -0.55 | 0.32
CC(=O)c1cc2c(cc1NC(=O)CSc1nc3[nH]ncc3c(=O)n1-c1ccc(Cl)cc1)OCO2
 : . | 8.9
CCNc1cccc(C)c1
 : -0.15 | 1
CCOc1ccccc1N(C)S(=O)(=O)c1ccc2[nH]cc(C(=O)N(CCOC)CCOC)c(=O)c2c1
 : . | 4.6

The last 7 compounds of the section above are carried over, then new ones follow.
Results follow in this order: AID504770 | CapD inh
CC(NC(=S)NCCc1ccc(S(N)(=O)=O)cc1)C12CC3CC(CC(C3)C1)C2 (stereo not given)
 : -0.35 | -0.6
O=C(O)CSc1ccc2c(c1)CCC2
 : 2.3 | .
CCc1nnc2c3ccccc3nc(-c3ccncc3)n12
 : 0.35 | 0.49
CC(O)c1nc2ccccc2n1C (stereo not given)
 : -0.55 | 0.32
CC(=O)c1cc2c(cc1NC(=O)CSc1nc3[nH]ncc3c(=O)n1-c1ccc(Cl)cc1)OCO2
 : . | 8.9
CCNc1cccc(C)c1
 : -0.15 | 1
CCOc1ccccc1N(C)S(=O)(=O)c1ccc2[nH]cc(C(=O)N(CCOC)CCOC)c(=O)c2c1
 : . | 4.6
Cc1csc(NC(=O)c2ccc(S(=O)(=O)N3CCc4ccccc4C3)cc2)n1
 : 0.9 | .
CCOC(=O)Nc1nc2ccc(C)cc2s1
 : -0.4 | -0.21
Cc1ccc(S(=O)(=O)N2CCN(C(=O)C3CCC(=O)N3)CC2)cc1 (stereo not given)
 : 0.05 | .
CCC1CCCCN1S(=O)(=O)c1c(C)cc(C)cc1C (stereo not given)
 : 2.4 | -0.33
O=C(Nc1cccc(-n2cnnn2)c1)C1CCCN1C(=O)c1cccs1 (stereo not given)
 : -1.9 | .
Cc1ccc(-c2nn(C)c(=O)c3ccccc23)cc1CO
 : 0.2 | 0.46
CC[C@H]1OC(=O)[C@H](C)[C@@H](O[C@H]2C[C@@](C)(OC)[C@@H](O)[C@H](C)O2)[C@H](C)[C@@H](O[C@@H]2O[C@H](C)C[C@H](N(C)C)[C@H]2O)[C@](C)(O)C[C@@H](C)[C@@H]2N[C@@H](COCCOC)O[C@H]([C@H]2C)[C@]1(C)O
 : -0.1 | .
CCSCCOC(=O)C1=C(C)NC2=C(C(=O)CC(c3ccc(OC)cc3)C2)C1c1cc2c(cc1[N+](=O)[O-])OCO2 (stereo not given)
 : . | 1.7
O=C(NCc1cccs1)c1cc(=O)n(Cc2ccc(Cl)cc2)c2ccccc12
 : 0.7 | 6
COc1ccc(-n2ncc(C(=O)NCc3ccc(-c4cccs4)cc3)c2C)cc1
 : -0.25 | 3.5
O=c1[nH]c2ccccc2c(O)c1C=Nc1ccccc1
 : 1.3 | -0.68
O=C(NCCn1ccc2ccccc21)c1ccc2c(c1)OCO2
 : 0.95 | -0.23
CS(=O)(=O)c1ccccc1C(=O)N1CCN(Cc2ccccc2)CC1
 : -0.6 | .
C(=C1/CCCC2C(c3ccccc3)C3=C(CCCC3)OC12N1CCCC1)/c1ccccc1 (stereo not given)
 : . | -0.17
CCc1ccccc1NC(=O)C1CCCN1S(=O)(=O)c1ccc2c(c1)n(C)c(=O)c(=O)n2C (stereo not given)
 : 0.05 | 0.29
CCN(CC)C(=O)Sc1nc2cc(Cl)ccc2s1
 : -0.55 | -0.16
Cc1noc(C)c1COC(=O)/C(=C/c1cccs1)c1cccs1
 : -0.55 | .
CCOC(=O)NC(=S)NCCC1CCNCC1
 : . | 0.11
CCOc1cc(C(F)(F)F)c(C(=O)N(C)Cc2c(OC)cccc2OC)cn1
 : -0.1 | 1.4
CC(OC(=O)c1ccco1)C(=O)Nc1ccc(Cl)cc1 (stereo not given)
 : -0.75 | .
COc1ccc(CC(=O)n2nc(N)c3cc4ccc(OC)cc4nc32)cc1
 : -0.1 | 1.3
CCCCc1ccc(COC(=O)N2CCN(Cc3c(OC)ccc4ccccc34)CC2)cc1
 : . | 1.2
CN1CCN(Cc2c(O)ccc3c4c(c(=O)oc23)CCCC4)CC1
 : -0.8 | 70
O=C(Cn1nnc2sc3c(c2c1=O)CCCC3)NC1CCCCC1
 : -0.9 | -0.17
COc1ccc(C2CC(=O)C3=C(C2)NC(C)=C(C(=O)OC2CCCC2)C3c2ccc([N+](=O)[O-])cc2)cc1OC (stereo not given)
 : . | -0.39
O=C(Nc1ncnc2sc3c(c12)CCCC3)c1ccccc1Br
 : . | -0.15
O=C(Nc1nnc(-c2ccc(Cl)cc2)o1)c1ccc2ncsc2c1
 : 0.45 | 0.48
CN1C=NC2C1C(=O)N(CCn1c(=O)c3c(ncn3C)n(C)c1=O)C(=O)N2C (stereo not given)
 : 1.2 | 0.27
O=C(NC1CCCC1)c1ccc2c(c1)N(Cc1ccccc1)C(=O)CS2
 : -0.5 | -0.32
COc1ccc(C2CC(=O)c3cnc(NCCN4CCOCC4)nc3C2)cc1 (stereo not given)
 : 0.05 | 0.23
COc1ccccc1NC(=O)N1CCN2C(=O)c3ccccc3C12c1ccccc1 (stereo not given)
 : -0.25 | .
CN(C)c1ccc(/C=C2/SC(=Nc3ccc4ccccc4c3)NC2=O)cc1
 : . | -0.82
COc1cc(C(=O)N2CCN(Cc3c[nH]c4ccccc34)CC2)cc(OC)c1OC
 : -0.1 | 0.56
CC(Sc1nc2cc(Cl)ccc2c(=O)n1Cc1ccco1)C(=O)N1CCc2ccccc2C1 (stereo not given)
 : -0.1 | .
CCCCN1C(=O)c2ccc(C(=O)Nc3c(N)n(CCCC)c(=O)n(C)c3=O)cc2C1=O
 : -0.2 | .
O=C(CSc1nnc2c(n1)[nH]c1ccccc12)NCCOc1ccccc1
 : . | -0.28
CCCCS(=O)(=O)Nc1ccc(C(=O)OC(C)C)cc1
 : -1 | -0.39
CCCn1c(SCc2cc(=O)oc3ccc4ccccc4c23)n[nH]c1=O
 : 0.2 | .
N#CC1C(C#N)N2CCCN2C1c1ccc(Cl)cc1 (stereo not given)
 : 2.2 | .
CCOc1ccc(/C=C/C(=O)Nc2cc3c(cc2N2CCCCC2)n(C)c(=O)c(=O)n3C)cc1
 : -0.15 | -0.19
Cc1csc(=O)n1CCCC(=O)O
 : 0.25 | .
COc1ccc(N2CCN(CCCNC(=O)CN3C(=O)CCSc4ccccc43)CC2)cc1
 : -0.05 | -0.23
O=C(NC(=O)N1CCSC1)c1c(F)cccc1F
 : . | -0.13
CCOC(=O)Cc1ccc(NC(=O)N2CCC(CN3CCc4ccccc4C3)CC2)cc1
 : -0.75 | -0.35
CN(C)C=Nc1cc(Cl)c(-n2cccc2)cc1Oc1ccc(Cl)cc1
 : 2.2 | -0.17
COC(=O)C1=C(C(=O)OC)SC2(S1)C(C(=O)OC)=C(C(=O)OC)SC1=C2c2cc(C)c(C)cc2NC1(C)C
 : . | -0.98
Cc1csc(N(C)C(=O)CSc2nnc(COc3cccc4ccccc34)o2)n1
 : -0.4 | .
CC(C)(C)Sc1ccccc1CN1CCN(S(=O)(=O)c2ccc(Br)cc2)CC1
 : . | 0.025
C=CCOC(=O)C1=C(C)NC(SCC(=O)OCC)=C(C#N)C1c1cccs1 (stereo not given)
 : -0.85 | .
O=C(CCSc1ccccc1)Nc1sc2c(c1-c1nc3ccccc3s1)CCCC2
 : . | -0.095
Cc1ccc(-c2cn3cccnc3n2)cc1NC(=O)c1ccccc1
 : -0.65 | 0.11
O=C(c1ccccc1NS(=O)(=O)c1ccc(F)cc1)N1CCCCC1
 : 1.9 | -0.76

From PubChem
